# Tgondii IFNg = T. gondii growth inhibition under IFN-gamma | Toxoplasma gondii growth in IFN-gamma-treated host cells; active compounds read low; reference of the scale not given here | activity change, negative = inhibition, %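 (about 20 µM by stock and volumes)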 | 69,000 tested, 3.8% active;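 active = below -70%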;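 also: host cells are HeLa cells infected with Toxoplasma gondii; parasite growth read as luciferase light; one replicate is shown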
# * marks the source's active call; other numbers are inactive results; i = inactive; ! = not active in a repeat. An excerpt; count on the stated rates, not on these rows.
structure	Tgondii IFNg
Cn1ccnc1CN1CCc2ncnc(-c3cccc(F)c3)c2CC1	-63
O=c1[nH]nc2c(-c3ccccc3)c(-c3ccccc3)c(-c3ccccc3)nn12	-106*
Cc1nc(NCCN2CCc3ccccc3C2)c2cnn(C)c2n1	-2
CCCN1CCn2cc(C(=O)NCc3cccc(OC)c3)nc2C1	-40
COc1ccc(-n2c(=O)c(C(=O)NC3CCCC3)c(O)c3cccnc32)cc1	29
N#Cc1ccccc1-c1ccccc1C#N	60
CC(=O)Nc1cccc(-c2n[nH]c(Cc3ccccc3)n2)c1	23
Clc1cccc(/C=N/N=C/c2cccc(Cl)c2)c1	12
Cc1ccc(N=Cc2c(C)[nH]n(-c3ccccc3)c2=S)c(Br)c1	34
CNC(=O)c1cc2c(nc1N(C)C)CCN(C(=O)NC1CCCC1)CC2	6
C[C@@H]1CCn2cc(nn2)COC[C@H](Cc2ccccc2)NC1=O	21
CCCCN(C)C(=O)c1cc(-c2cnc(-c3ccccc3)nc2)cn1C	-7
CCCCOC(=O)N1CCc2c(nc(-c3cccnc3)[nH]c2=O)C1	-6
CC(C)(Oc1ccc(Cl)cc1)C(=O)OCCOC(=O)c1cccnc1	2
Cc1ccc(NC(=O)CN2C(=O)CCc3cc(S(=O)(=O)N4CCC(C)CC4)ccc32)cc1N(C)C	149
Cc1ccccc1NS(=O)(=O)c1ccc2[nH]c(=O)ccc2c1	85
N#C[C@H]1[C@@H](c2ccc(C3=CCCCC3)cc2)[C@@H](CO)N1S(=O)(=O)c1ccccc1	-40
Cn1c(Sc2ncnc3c2nnn3Cc2ccccc2)nnc1-c1ccccc1	-55
FC(F)(F)c1ccc2c(c1)Nc1ccccc1S2	90
COc1ccc(-n2ccnc2-c2cnc[nH]2)cn1	5
O=C(CN1C(=O)CCc2cc(S(=O)(=O)N3CCOCC3)ccc21)NC1CCCCCCC1	0
Cc1ccc(F)cc1S(=O)(=O)N1CCC2(CC1)Nc1ccc(C)c(C)c1-n1cccc12	2
C=CCN1C(=O)CO[C@@H]2CN(c3cc(C(F)(F)F)ncn3)C[C@@H]21	-4
CCOC(=O)c1nc(NC2CCCCCC2)c2ccccc2n1	-14
CC1NCCn2c(COCc3ccccn3)cnc21 (stereo not given)	-83*
C=C[C@]1(C)C[C@@H](OC(=O)CSC2C[C@H]3CC[C@@H](C2)N3C)[C@]2(C)[C@H](C)CC[C@]3(CCC(=O)[C@H]32)[C@@H](C)[C@@H]1O (stereo not given in full)	-50
O=C(CSc1nc(-c2ccc(F)cc2)cc(C(F)(F)F)n1)N1CCOCC1	21
CCC(=O)N1CCC2(CC1)CC(CC(N)=O)c1ccc(F)cc12 (stereo not given)	-22
CC=Cc1ccc2n(c1=O)C[C@@H]1[C@@H](CO)[C@H](C(=O)N[C@H](C)c3ccccc3)[C@H]2N1Cc1cncnc1 (mixture of isomers)	3
CCCNC(=O)N1CC2(C1)[C@H](c1ccccc1)[C@H](CO)N2C(=O)c1cccnc1	-6
CC(=O)NCC1=CCCN(Cc2nccn2C(C)C)C1	11
Cc1nccn1CCC(=O)NC(C)c1ccc2c(c1)CCCC2 (stereo not given)	2
Cc1cc(C)c2[nH]c(=O)c(-c3c(-c4ccccc4)ncn3CCCO)cc2c1	3
COCCC(=O)c1cc(-c2cn(CCOC)cn2)n2ccccc12	-1
COc1cccc(NC(=O)Cn2ncc3c(N4CCCCCC4)ncnc32)c1	-42
Cc1ccccc1C1(O)CCN(Cc2c(C)n(C)n(-c3ccccc3)c2=O)C1 (stereo not given)	-6
COc1ccc(NC(=O)c2c(O)c3cccnc3n(-c3ccccc3)c2=O)cc1OC	-25
CCS(=O)(=O)N1Cc2nccn2CC(Cn2nc(C)nc2C)C1 (stereo not given)	-4
CN(C)CC(=O)N1C[C@H](OCc2ccccn2)[C@@H]2OCCC[C@@H]21	3
CCn1c(C2CCNCC2)nn(CCN2CCN(c3ccccc3)CC2)c1=O	-2
C[C@H](NC(=O)C[C@H]1C=C[C@H](NS(=O)(=O)c2cccc(F)c2)[C@H](CO)O1)c1ccccc1	-31
CN(C)[C@@H]1C[C@@H](CO)N(C(=O)NCCc2ccc(F)cc2)C1	3
CN(C)CCNC(=O)C1CC2(CCN(c3cnccn3)CC2)c2ccccc21 (stereo not given)	6
CN1CCC(N2CCN(C(=O)C3CCCN(c4cnc5nccnc5c4)C3)CC2)CC1 (stereo not given)	4
COc1ccc(CCNc2nc(C)cc(C)n2)cc1OC	311
Cc1ccc(NC(=O)N2CCC3(CCC(C(=O)N(C)C)O3)C(C)C2)cc1 (stereo not given)	55
O=C1Nc2ccc(Cl)cc2[C@@](C#CC2CC2)(C(F)(F)F)O1	12
CCC(=O)NCc1ccccc1-c1ccc2c(c1)OCO2	7
COCCN1CCc2ncc(CNC(=O)c3cnn(C)c3)n2CC1	84
COC(=O)c1ccccc1NC(=O)N1CCC2(CC1)Nc1cc(OC)ccc1-n1cccc12	400
COc1ccc2c(=O)c(-c3cnn(-c4ccccc4)c3)c(C)oc2c1	0
CO[C@H](CN(C)Cc1ccc2c(c1)OCO2)[C@H](C)CN(C(=O)c1ccccc1)[C@H](C)CO	-15
CN(C)C(=O)c1cccc(-c2ccccc2[C@H]2[C@@H](C#N)N(C(=O)C3CCCCC3)[C@@H]2CO)c1	-38
C[C@@H]1CN([C@@H](C)CO)C(=O)c2cccc(N(C)C)c2O[C@@H]1CN(C)C(=O)Nc1ccc(F)cc1	24
Cc1cc(C)c(NC(=O)Cn2c(=O)cc(C(=O)N3CCCC3)c3ccccc32)c(C)c1	9
O=C(CC1CCCCC1)Nc1ccc(-c2nc(-c3ccccc3)co2)cc1	5
Cc1ccc(-c2coc(-c3ccc(NC(=O)Nc4cccc(Cl)c4)cc3)n2)cc1	78
COc1ccc2c(c1OC)C(=O)OC2C1c2c(cc3c(c2OC)OCO3)CCN1C (stereo not given)	14
Cc1ccc(NC(=O)c2c(O)c3cccnc3[nH]c2=O)cc1	59
O=C1N(Cc2cccc(F)c2)CCC12CCN(S(=O)(=O)C1CC1)C2 (stereo not given)	-4

# 14 consecutive entries out of the list so far, for reference:
structure	Tgondii IFNg
CN1CCC(N2CCN(C(=O)C3CCCN(c4cnc5nccnc5c4)C3)CC2)CC1 (stereo not given)	4
COc1ccc(CCNc2nc(C)cc(C)n2)cc1OC	311
Cc1ccc(NC(=O)N2CCC3(CCC(C(=O)N(C)C)O3)C(C)C2)cc1 (stereo not given)	55
O=C1Nc2ccc(Cl)cc2[C@@](C#CC2CC2)(C(F)(F)F)O1	12
CCC(=O)NCc1ccccc1-c1ccc2c(c1)OCO2	7
COCCN1CCc2ncc(CNC(=O)c3cnn(C)c3)n2CC1	84
COC(=O)c1ccccc1NC(=O)N1CCC2(CC1)Nc1cc(OC)ccc1-n1cccc12	400
COc1ccc2c(=O)c(-c3cnn(-c4ccccc4)c3)c(C)oc2c1	0
CO[C@H](CN(C)Cc1ccc2c(c1)OCO2)[C@H](C)CN(C(=O)c1ccccc1)[C@H](C)CO	-15
CN(C)C(=O)c1cccc(-c2ccccc2[C@H]2[C@@H](C#N)N(C(=O)C3CCCCC3)[C@@H]2CO)c1	-38
C[C@@H]1CN([C@@H](C)CO)C(=O)c2cccc(N(C)C)c2O[C@@H]1CN(C)C(=O)Nc1ccc(F)cc1	24
Cc1cc(C)c(NC(=O)Cn2c(=O)cc(C(=O)N3CCCC3)c3ccccc32)c(C)c1	9
O=C(CC1CCCCC1)Nc1ccc(-c2nc(-c3ccccc3)co2)cc1	5
Cc1ccc(-c2coc(-c3ccc(NC(=O)Nc4cccc(Cl)c4)cc3)n2)cc1	78

# (more compounds)
structure	Tgondii IFNg
CN(C)C(=O)COC1C2CCCC1CN(c1nncs1)C2 (stereo not given)	-32
COC[C@H]1CN(CC2CC2)C[C@@]12CCN(CCc1ccccc1)C2	-56
O=C(Oc1ccccc1-c1nnco1)c1ccc(Cl)cc1	22
CN1CCC=C(C2CCCCN2C(=O)c2cc3ccccc3s2)C1 (stereo not given)	6
CCCS(=O)(=O)N1Cc2nccn2CC(Cn2cncn2)C1 (stereo not given)	-2
CCCCOc1ccc(S(=O)(=O)N(Cc2ccccc2)Cc2ccccc2)cc1	-27
CCC(C)NC(=O)Cn1c(=O)c(S(=O)(=O)c2ccccc2)cc2cc(C)ccc21 (stereo not given)	-8
COc1cc(OC)c(NS(=O)(=O)c2ccc(F)cc2)cc1NC(C)=O	42
CCn1ncc(CN(CCN(C)C)Cc2cccnc2)c1C	1
COC(=O)C[C@H]1CC[C@H](N)[C@@H](CO)O1	-21
COc1ccc([C@@H]2CN(C(=O)c3cccs3)C[C@H]2C(=O)O)cc1	-14
Cc1cccc(N2CC[C@@H]3[C@H]2CCN3S(C)(=O)=O)n1	-13
Cc1cnc(N2CCCn3cnc(COCCO)c3C2)nc1	-3
CCOC(=O)N1CCC(NCCS(=O)(=O)N(C)C)CC1	-3
C=CCN(CC=C)C(=O)Nc1ccc2nsnc2c1	-81*
CCOC(=O)c1sc(Nc2ccc(OCC)cc2)nc1C	29
CC(NC(=O)CC1C(=O)NCCN1Cc1cccc(F)c1)C1CC2CCC1C2 (stereo not given)	10
Cc1nc(-c2ccc(Cl)cc2)sc1CCNC(=O)CCc1ccccc1	36
NC(=O)CC1C(=O)NCCN1Cc1ccccc1C(F)(F)F (stereo not given)	4
CC[C@@H](C(=O)[C@@H](C)[C@@H](O)[C@H](C)[C@@H]1O[C@@H]([C@@H](CC)C(=O)O)CC[C@@H]1C)[C@H]1O[C@]2(C=C[C@@H](O)[C@]3(CC[C@@](C)(C4CC[C@](O)(CC)[C@H](C)O4)O3)O2)[C@H](C)C[C@@H]1C (stereo not given in full)	-81*
O=C(CN1C(=O)CCc2cc(S(=O)(=O)N3CCCC3)ccc21)NC1CCCCCCC1	2
CSc1ccc(C(=O)C2CCCN(Cc3cc(=O)c4ccccc4[nH]3)C2)cc1 (stereo not given)	14
CCS(=O)(=O)N1CCC2(CC1)OC(=O)C(C)=C2C(=O)NCCN1CCOCC1	17
CCOc1ccc(C(=O)N2CCN(S(=O)(=O)c3cc4c5c(c3)CCC(=O)N5CCC4)CC2)cc1	1
Cc1nc(CSc2n[nH]c(=O)n2Cc2ccccc2)cs1	-48
COc1cccc(N2CCN(C3=Nc4c(F)cccc4[C@H](CC(=O)O)N3c3cc(C(F)(F)F)ccc3OC)CC2)c1	-43
CNC[C@H]1Oc2ccc(NS(=O)(=O)c3ccc(OC)cc3)cc2C(=O)N([C@@H](C)CO)C[C@H]1C	-53
CO[C@H]1CC[C@@H]2CCOc3c(C#N)cccc3C(=O)N(C)C[C@@H](OC)[C@@H](C)C(=O)N(C)C[C@@H]1O2	-30
O=C1N(CCc2ccccc2)CCCC1(O)CNCc1ccc(Cl)cc1 (stereo not given)	3
CCOc1ccccc1NC(=O)N1CCC2(CC1)NC(=O)c1cc(Cl)ccc1N2C	44
Cc1ccc(NC(=O)CN2C(=O)CCc3cc(S(=O)(=O)N4CCOCC4)ccc32)cc1N(C)C	88
COc1ccc(-n2c(-c3cc(-c4ccccc4)sc3N)n[nH]c2=S)cc1	-27
CCCCCCC(C)OC(=O)c1ccccc1C(=O)O (stereo not given)	35
COc1ccc2c(c1)NC1(CCN(C(=O)Nc3ccc(Br)c(C)c3)CC1)c1cccn1-2	66
CCn1c(=O)c(-c2nc(-c3ccccc3F)no2)c(O)c2ccccc21	209
Cc1cccc(C)c1-n1nnnc1-c1cnccc1C(F)(F)F	26
CC(=O)Nc1ccc(CN2CCC3(CC2)C(=O)N(C)C(=O)N3CC(C)C)cc1	25
CCC(=O)Nc1ccc(NC(=O)c2ccnnc2)cc1Cl	8
O=C(C[C@H]1C=C[C@H](NC(=O)c2ccncc2)[C@@H](CO)O1)NCC1CC1	-44
O=C1CCC(C(=O)NCc2ccc(S(=O)(=O)N3CCCC3)cc2)=NN1	-1
NC(=O)N1CCC2O[C@@H](COCc3ccncc3)CCC21 (stereo not given in full)	-2
COc1ccc(C)cc1NC(=O)c1c(O)c2cccnc2n(-c2ccccc2)c1=O	-38
COCCCN1CC2(CCCCN2C(=O)Cc2ccccc2)CC1=O (stereo not given)	1
O=C1NC2(CCc3ccccc31)CCN(Cc1ccnc(N3CCCCC3)n1)C2 (stereo not given)	18
CCS(=O)(=O)N1C[C@@H](c2nc(C)no2)C[C@@H]2OCC[C@@H]21	440
Cc1cc(C)c2nc(C)cc(C(=O)Nc3ccccc3-c3ccccc3)c2c1	-30
Cc1onc(C(=O)O)c1Cn1ccnc1C	-7
Cc1noc(C)c1NC(=O)N(C)C[C@@H]1Oc2ccc(NC(=O)CCCN(C)C)cc2C(=O)N([C@@H](C)CO)C[C@H]1C	30

# Quoted at random: two compounds from above, in no set order.
structure	Tgondii IFNg
Cc1noc(C)c1NC(=O)N(C)C[C@@H]1Oc2ccc(NC(=O)CCCN(C)C)cc2C(=O)N([C@@H](C)CO)C[C@H]1C	30
Cc1onc(C(=O)O)c1Cn1ccnc1C	-7

# Carrying on.
structure	Tgondii IFNg
CC(=O)Nc1ccc(S(=O)(=O)NC2=NCN(Cc3ccco3)CN2)cc1	75
O=C(O)[C@@H]1[C@@H](CO)[C@@H]2Cn3c(ccc(-c4cccc(F)c4)c3=O)[C@@H]2N1C(=O)c1ccccn1	6
COc1cccc(CNC(=O)C[C@H]2CC[C@@H]3[C@H](COc4ccc(NS(=O)(=O)c5ccccc5F)cc4C(=O)N3C)O2)c1	9
Cc1cn(-c2cc(NC(=O)c3ccc(C)c(Nc4nccc(-c5cccnc5)n4)c3)cc(C(F)(F)F)c2)cn1	-77*!
O=C(Nc1cccc(F)c1)N1CCC2(CC1)Nc1ccccc1-n1cccc12	i
Cc1cccc(CN2CCC3(CCCN(Cc4cccnc4)C3)C2=O)n1 (stereo not given)	-6
COc1cc(OC)cc(-c2nccn2[C@@H](C)CO)c1	57
CCOc1ccc(-c2nc(CN(c3ccccc3OCC)S(=O)(=O)c3cccs3)c(C)o2)cc1	8
CC(C)N(C)CC1CCC2(CCN(c3nncs3)CC2)CO1 (stereo not given)	3
